# FGF22 binding = binders of human FGF22 protein, primary screen, FGF22 synaptogenesis inhibitor project, biophysical, thermal shift, single point. Fibroblast growth factor 22 (Homo sapiens), Q9HCT0. 340,000 tested, 1.5% active. calls only at 9.99 µM. recombinant FGF22 thermal shift, SYPRO orange fluorescence; percent of sucrose octasulfate shift, DMSO zero. AID 651658, 2012;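 active = melting point raised past a set limit in the mean and every replicate; inconclusive = no clear call; three in four hits are not shown here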
# Target sequence (Q9HCT0 whole entry, looked up): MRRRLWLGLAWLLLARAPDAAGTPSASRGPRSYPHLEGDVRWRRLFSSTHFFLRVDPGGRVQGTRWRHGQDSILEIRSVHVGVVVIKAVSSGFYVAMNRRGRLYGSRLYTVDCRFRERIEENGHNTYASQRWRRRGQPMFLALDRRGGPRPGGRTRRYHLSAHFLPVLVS
# Vif TR-FRET = inhibitors of Vif binding to APOBEC3G peptide, primary screen, biochemical, TR-FRET, GST-Vif 1-94, biotin-A3G peptide, dose response retest (AID 1117319) | Virion infectivity factor (Human immunodeficiency virus type 1 group M subtype B (isolate … | TR-FRET GST-Vif / biotin-A3G peptide binding; higher % means a stronger effect; test concentration not given here; strong numbers were not always called active | inhibition, %; hits with a dose series show IC50 in µM | 260,000 tested, 0.57% active;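 active = above the screen mean plus three standard deviations and confirmed in dose response; inconclusive = results disagree or hit not tested in dose response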;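 also: Vif residues 1-94 fused to GST binding biotinylated APOBEC3G peptide 110-148; 0% = full assay without inhibitor and 100% = GST in place of GST-Vif; retest series ran down from 100 µM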
# HNF4A DNA FP = change in binding of human HNF4A to DNA, primary screen, biochemical, fluorescence polarization, FITC-DNA. 1 h. 360,000 tested, 0.3% active. Hepatocyte nuclear factor 4-alpha (Homo sapiens), P41235. activity change, % at 10 µM; in the data active = activity change above about 30%, passing the limit was not always enough;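 also: controls were the assay level and a saturating level of protein; the project sought stronger binding though the title names inhibitors; some compounds called inactive have numbers as strong as hits; positive values seem to mean higher polarization but the record does not say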
# Target sequence (P41235 whole entry, looked up): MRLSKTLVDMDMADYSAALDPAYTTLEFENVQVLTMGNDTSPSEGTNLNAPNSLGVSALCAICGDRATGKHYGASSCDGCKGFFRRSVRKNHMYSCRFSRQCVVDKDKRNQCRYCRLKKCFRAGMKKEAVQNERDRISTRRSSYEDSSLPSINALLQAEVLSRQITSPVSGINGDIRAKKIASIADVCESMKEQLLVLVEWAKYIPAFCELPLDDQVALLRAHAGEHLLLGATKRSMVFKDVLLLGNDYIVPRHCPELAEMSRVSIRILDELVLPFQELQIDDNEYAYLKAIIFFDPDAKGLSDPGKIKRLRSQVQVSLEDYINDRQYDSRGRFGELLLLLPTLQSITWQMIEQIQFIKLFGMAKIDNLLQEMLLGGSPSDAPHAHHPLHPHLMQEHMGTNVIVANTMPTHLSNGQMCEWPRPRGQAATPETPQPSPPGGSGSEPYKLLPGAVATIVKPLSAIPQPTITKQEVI
# AF4-AF9 inh = inhibitors of AF4 peptide binding to AF9, primary screen, biochemical, AlphaScreen, biotin-AF4 peptide, FLAG-AF9, single point; Protein AF-9 (Homo sapiens), P42568; inhibition, % at 10 µM; 350,000 tested, 0.47% active;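 active = every replicate reaching a set inhibition limit, whatever the replicate mean, cut at about 25% in these data; inconclusive = mean inhibition reaches that limit but some replicates miss it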;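 also: 0% = plate neutral control median and 100% = total signal loss; the record names both 10 and 1 µM as test concentration; the first replicate is given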
# Ecoli growth = E. coli growth inhibition, primary screen, OD600. Escherichia coli growth, 23 h; hits give low values. OD600 absorbance (no concentration beside the values). 330,000 tested, 0.21% active. AID 1053175, 2014;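 active = OD600 absorbance below the run mean of sample wells minus 3.6 SD, in any replicate, cut at about 0.56 in these data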;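 also: stock transfer was 300 nL into about 60 µL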
# UCH37 inh = inhibitors of human UCH37 deubiquitinase, primary screen, biochemical, Ub-AMC cleavage, fluorescence; AID 588478, 2011; 330,000 tested, 0.33% active; purified proteasome/UCH37; inhibition, % (test concentration not listed);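 active = mean of two replicates above 20%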;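 also: 0% = compound-free wells with enzyme and 100% = wells lacking proteasome; stock transfer was 100 nL into about 20 µL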
# Target sequence (Q9Y5K5 whole entry, looked up): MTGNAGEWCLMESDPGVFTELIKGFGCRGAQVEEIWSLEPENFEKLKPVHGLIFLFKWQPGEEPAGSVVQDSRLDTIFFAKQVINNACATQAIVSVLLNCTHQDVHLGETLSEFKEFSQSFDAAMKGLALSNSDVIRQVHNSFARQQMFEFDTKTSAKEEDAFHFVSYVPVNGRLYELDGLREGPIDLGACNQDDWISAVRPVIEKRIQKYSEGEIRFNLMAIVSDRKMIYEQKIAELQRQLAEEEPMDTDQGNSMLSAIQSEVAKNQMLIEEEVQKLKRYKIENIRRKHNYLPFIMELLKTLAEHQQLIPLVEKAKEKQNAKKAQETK
#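 Test system – human UCH37 enzyme supplied as purified proteasome complex · Incubation – 30 min preincubation with enzyme, 25 min cleavage at room temperature · Detection – AMC fluorescence from Ub-AMC cleavage, excitation 355 nm, emission 460 nm · Benchmarks – no-proteasome wells (full inhibition) and compound-free wells (no inhibition)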
# RanGTP-Imp inh = inhibitors of RanGTP-importin-beta interaction, primary screen, biochemical, FRET, CFP-Ran, YFP-importin-beta, homogeneous; Ran GTPase (GTP-bound) - importin-beta complex; cell-free CFP-Ran/YFP-importin-beta FRET ratio; inhibition, % (concentration not given with the values); 300,000 tested, 1.1% active;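 active = most replicates above 15%; inconclusive = exactly half above 15%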;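 also: 0% = DMSO wells and 100% = Ran loaded with GDP instead of GTP; wells of about 40 µL received 100 nL stock; the first replicate is given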
# * = called active by the depositor; i = inactive; u = inconclusive; x = not tested or not shown; & = joins results of further samples. Not all compounds are listed; the hit share may differ from the screen's.
SMILES,FGF22 binding,Vif TR-FRET,HNF4A DNA FP,AF4-AF9 inh,Ecoli growth,UCH37 inh,RanGTP-Imp inh
CC(C)CC1CC(C)(c2csc(NNC(=O)c3ccccc3)n2)OC1=O (stereo unspecified),i,11.9%,3.2,-2.3,0.735,4.2,0.0
O=C(Nc1ccccc1OC(F)F)c1cccc(S(=O)(=O)N2CCCC2)c1,i,-1.3%,1.0,0.7,0.693,2.2,u
O=C(COC(=O)c1ccccc1)Nc1ccccc1Br,x,4.1%,5.6,x,0.69,1.3,-0.6
COc1ccc2cc(C(=O)COC(=O)COc3ccc4c(C)cc(=O)oc4c3)ccc2c1,x,x,2.6,x,0.726,-35.2,0.6
CCC(=O)c1ccc(OCC(O)CNCc2ccc(F)cc2)cc1 (stereo unspecified),i,5.9%,1.6,-0.8,0.669,3.0,0.6
COc1ccc(CCNS(=O)(=O)c2cccc(S(=O)(=O)N3CCCC3)c2)cc1OC,x,0.9%&17.4%,0.0,x,0.791,-1.5,1.7
Cc1ccc(-n2c(O)c(/C=N/c3ncn[nH]3)c3ccccc3c2=O)cc1,i,-4.0%,3.6,0.4,0.727,-14.6,3.8
CC(CC(=O)NCC1CCCO1)c1ccccc1 (stereo unspecified),i,0.6%,3.6,-1.0,0.724,1.9,6.1
Cc1ccc(N2C(=O)C3C4C=CC(C4)C3C2=O)cc1 (stereo unspecified),x,-0.9%,-1.9,x,0.726,1.6,-2.5
Cc1nnc(Cl)c2nn(-c3ccccc3F)c(C)c12,i,u,1.3,1.3,0.683,1.8,-0.8

# Another view of four compounds above:
# Value order: FGF22 binding, Vif TR-FRET, HNF4A DNA FP, AF4-AF9 inh, Ecoli growth, UCH37 inh, RanGTP-Imp inh
- COc1ccc2cc(C(=O)COC(=O)COc3ccc4c(C)cc(=O)oc4c3)ccc2c1
→ x, x, 2.6, x, 0.726, -35.2, 0.6
- CCC(=O)c1ccc(OCC(O)CNCc2ccc(F)cc2)cc1 (stereo unspecified)
→ i, 5.9%, 1.6, -0.8, 0.669, 3.0, 0.6
- COc1ccc(CCNS(=O)(=O)c2cccc(S(=O)(=O)N3CCCC3)c2)cc1OC
→ x, 0.9%&17.4%, 0.0, x, 0.791, -1.5, 1.7
- Cc1ccc(-n2c(O)c(/C=N/c3ncn[nH]3)c3ccccc3c2=O)cc1
→ i, -4.0%, 3.6, 0.4, 0.727, -14.6, 3.8

# (next part)
SMILES,FGF22 binding,Vif TR-FRET,HNF4A DNA FP,AF4-AF9 inh,Ecoli growth,UCH37 inh,RanGTP-Imp inh
COc1cc2c(cc1OC)C(c1ccccc1F)NCC2 (stereo unspecified),i,x,0.8,-9.1,0.666,1.0,-1.5
Cc1cc(C(C)(C)C)oc1C(=O)NCCCNC(=O)c1oc(C(C)(C)C)cc1C,x,7.5%,-0.1,x,0.774,-2.1,-0.3
COCC(C)NS(=O)(=O)c1ccc(C)cc1 (stereo unspecified),x,-2.6%,-0.3,x,0.725,2.8,-1.1
Cc1cc(C)c(S(=O)(=O)Nc2cccc(S(=O)(=O)NC3=NCCC3)c2)c(C)c1,i,-9.8%,-0.3,-12.5,0.653,2.4,1.4
CN(C(=O)c1ccc(NC(=O)C2CCCN(C(=O)OC(C)(C)C)C2)cc1)C1CCCC1 (stereo unspecified),i,x,2.0,-4.6,0.692,-0.6,x
Cc1ccccc1/C=N\NC(=O)c1ccc(Cn2cccn2)o1,x,-0.5%,-1.5,x,x,x,-0.8
Cc1ccccc1NC(=O)COC(=O)c1cccc(S(=O)(=O)N2CCCCC2)c1,i,-3.5%,0.5,1.6,0.64,2.1,x
O=C(CCNS(=O)(=O)c1ccc(OC(F)(F)F)cc1)N1CCN(C/C=C/c2ccccc2)CC1,i,x,-0.6,4.4,0.677,8.4,-0.5
O=C(NN=Cc1cccc([N+](=O)[O-])c1)c1cc(-c2cccnc2)nc2ccccc12,i,x,3.3,-1.6,0.66,1.7,x
CC(=O)Nc1ccc(S(=O)(=O)N(CC(=O)NCC2CCCO2)Cc2ccccc2Cl)cc1 (stereo unspecified),i,1.6%,-1.1,2.8,x,x,x
COc1ccc(S(=O)(=O)N(C)CC(=O)Nc2ccc3c(c2)OCCO3)cc1OC,x,6.8%,-1.1,x,0.725,0.2,u
CC(C(=O)NC1CCCCC1)N1CCN(S(=O)(=O)c2cccs2)CC1 (stereo unspecified),i,x,6.0,-4.6,0.666,1.2,x
Cc1[nH][nH]c(=O)c1N=Nc1ccc(S(N)(=O)=O)cc1,i,x,-0.4,-1.0,0.641,15.4,0.9
Cc1ccccc1NS(=O)(=O)c1cc(S(C)(=O)=O)ccc1Cl,x,-5.0%,-0.8,x,0.678,1.2,u
CCOC(=O)Cn1c(CN2CCOCC2)nc2c1c(=O)[nH]c(=O)n2C,i,7.1%,0.7,-0.5,0.718,1.9,0.3
Cc1cccc(Nc2nnc(SCC(=O)Nc3ccccc3[N+](=O)[O-])s2)c1,x,x,0.6,x,0.685,4.0,-2.8
Cn1nc(-c2ccc(N3CCOCC3)c(NS(=O)(=O)c3ccc(Cl)cc3)c2)c2ccccc2c1=O,x,-3.4%,1.4,x,0.733,-5.5,x
Cc1cc(C)nc(NS(=O)(=O)c2ccc(NC(=O)Nc3ccccc3)cc2)n1,i,u,4.3,-2.2,0.662,6.0,5.5
Cc1ccc(C2CC(c3ccc(Cl)cc3)n3nc(N)nc3N2)cc1 (stereo unspecified),i,u,-3.5,-1.2,0.744,-0.8,6.0
CCOC(=O)C1(Cc2ccccc2)CCCN(C2CCCC2)C1 (stereo unspecified),i,14.8%,8.5,-0.4,0.625,0.6,2.8
COC(=O)c1ccc(N2CCOCC2)c(NC(=O)c2ccco2)c1,i,x,-1.7,-0.6,x,x,-2.4
O=C(O)c1ccccc1-c1ccc(C=c2sc3nc4cc(Br)cnc4n3c2=O)o1,i,x,-29.8,-12.0,0.677,42.9*,x
CSc1nc(-c2ccccc2)c2cc(Cl)ccc2n1,i,x,-1.2,-0.1,0.681,1.8,x
CC(=O)Nc1nc2c(ncn2COCCOC(C)=O)c(=O)[nH]1,x,-1.1%,x,x,0.741,4.1,4.0
CCOC(=O)CC(=O)Nc1ccc(C(=O)OCC)cc1,x,-0.1%,2.5,x,0.771,1.0,2.4
O=C(COC(=O)Cc1ccsc1)Nc1cccc(F)c1,i,24.4%,0.8,-3.2,0.691,3.3,x
CC(=O)/C(=N\Nc1ccccc1)Sc1nncn1C,x,u,2.3,x,x,x,2.5
COc1ccccc1CN1C[C@@H]2C[C@@H](C3=Cc4cccc(OC)c4OC3)N3CCC[C@@]23C1=O,i,-6.7%,2.5,5.4,0.711,1.0,1.8
O=C(COC(=O)Cc1ccc(Cl)cc1Cl)NCc1ccco1,x,-0.8%,-1.0,0.6,x,x,x
O=C(NC(=S)Nc1cccc(CO)c1)c1ccc(-c2ccccc2)cc1,i,x,-1.0,-0.1,0.712,5.4,0.0
CN(CC12CC3CC(CC(C3)C1)C2)C(=O)c1ccco1,i,x,0.9,0.9,0.754,4.1,-0.1
COc1cccc(C(=O)NNC(=O)CCc2ccccc2)c1,x,-5.5%,2.7,-1.5,0.661,2.4,-3.1
CCOc1ccc(/C=C2\SC(=S)N(CCC(=O)Nc3ccccc3C(=O)O)C2=O)cc1,i,6.4%,-5.2,0.0,0.691,7.5,0.5
COC(=O)c1cccc(NC(=O)c2ccc3c(c2)C(=O)N(Cc2cccnc2)C3=O)c1,i,-0.2%,-4.9,0.1,0.697,-1.0,-3.0
CC1(Cc2ccc(S(C)(=O)=O)cc2)C(=O)Nc2ccc(Cl)cc21 (stereo unspecified),i,x,1.2,-2.7,x,x,x
COc1cc(OC)cc(C(=O)NC(=S)Nc2ccc3oc(=O)ccc3c2)c1,i,x,-4.3,-14.5,0.688,7.3,-0.6
CC(=O)Nc1ccc(C(=O)OCC(=O)NC(=O)NC(C)(C)C)cc1,x,0.4%,-1.0,x,0.671,0.4,-3.5
CC1(/[N+]([O-])=C/c2ccc(Cl)cc2Cl)CCCCC1=O (stereo unspecified),i,x,3.0,-2.3,0.684,-0.4,3.7
O=C1N=C(N2CCN(c3ccccc3)CC2)SC1Cc1ccccc1 (stereo unspecified),x,x,-3.3,x,0.668,4.2,1.5
NS(=O)(=O)c1ccc(NC(=S)NCc2ccc(F)cc2)cc1,i,0.7%,-1.8,-0.8,0.703,7.8,-0.1
CC(C)[C@H](NC(=O)c1ccccc1)C(=O)OCC(=O)c1ccc2c(c1)NC(=O)CO2,x,-2.8%,3.4,x,0.684,7.1,1.1
COc1ccc(Cc2nc3ccc(C(=O)N4CCCC4)cc3o2)cc1OC,i,x,-1.7,-3.8,0.674,1.0,-1.1
O=c1/c(=C\c2cccc(O)c2)sc2nc(-c3ccccc3)c(-c3ccccc3)n12,i,-5.7%,0.8,-21.1,x,x,3.2
COc1ccc(OC)c(NC(=O)C2CCC(CNc3c(N4CCC(C)CC4)c(=O)c3=O)CC2)c1 (stereo unspecified),i,u,6.2,7.9,0.712,0.4,0.1
O=C(Cn1cc(S(=O)(=O)Cc2ccc([N+](=O)[O-])cc2)c2ccccc21)N1CCOCC1,i,1.1%,1.7,-2.3,0.751,0.9,x
COC(C/C=C/C(=O)COCc1ccccc1)OC,i,u,2.2,-3.0,x,4.8,2.7
Cn1nc(C(F)(F)F)cc1C(=O)NC1CCCCCC1,i,6.2%,-4.0,-72.2,0.753,0.2,6.7
CCOc1ccc(-c2nc(CSCC(=O)NC3CCN(Cc4ccccc4)CC3)c(C)o2)cc1,i,-2.4%,2.6,11.7,x,x,x
O=C(Nc1ccccc1Cl)C1CCN(Cc2cnn(-c3ccccc3)c2-n2cccc2)CC1,x,10.1%,-2.5,x,0.67,4.3,-0.3
CN(CC(=O)Nc1c(Cl)cccc1Cl)C(=O)C1CCN(C(=O)Nc2ccccc2)CC1,i,-0.4%,0.3,-0.5,0.648,-0.3,1.1

# Next part
SMILES,FGF22 binding,Vif TR-FRET,HNF4A DNA FP,AF4-AF9 inh,Ecoli growth,UCH37 inh,RanGTP-Imp inh
CCOC(=O)N1C(=O)[C@@](CC)(c2ccccc2)N1C(=O)OCC,i,x,2.5,-9.7,x,x,-0.7
COc1ccc(-c2noc(-c3ccco3)n2)cc1OC,x,0.6%,1.3,x,0.689,3.1,-6.0
CSC1=N/C(=C\c2cccnc2)C(=O)N1c1ccccc1,i,2.2%,0.1,0.6,0.693,-23.0,-2.0
c1coc(Cn2nnnc2CN2CCN(C3CCCCC3)CC2)c1,x,27.3%,2.4,x,0.757,2.6,0.7
CN1C(=O)C(=C2CCCCCC2)SC1=S,x,4.5%,-1.6,x,0.671,-2.0,8.9
O=C(COC(=O)/C=C/c1ccc(OC(F)F)cc1)NC1CCCCCCC1,i,-3.3%,3.0,-0.7,0.673,3.2,3.8
CC1(C)CC(=O)C2=C(C1)Oc1ncn(CCCO)c(=N)c1C2c1ccccc1 (stereo unspecified),i,28.8%,2.4,5.9,0.712,1.4,u
COC1CCCCC1NS(=O)(=O)c1ccc(Cl)cc1 (stereo unspecified),i,0.8%,-1.0,-4.5,0.743,1.7,3.4
CC(C)(O)C#Cc1ccc(C(=O)NC(CCCNC(N)=O)C(=O)O)s1 (stereo unspecified),i,-4.3%,1.1,-0.2,0.657,-1.5,0.6
CCOc1ccc(-c2nn3c(-c4ccccc4)nnc3s2)cc1,x,-2.3%,3.1,x,0.674,1.1,-1.2
O=C1OC(N2CCN(C(=O)c3ccco3)CC2)c2ccccc21 (stereo unspecified),x,2.4%,2.6,x,0.733,4.0,2.1

# Source: PubChem
